H5N1 antiviral: MDCK cell protection from H5N1 avian flu; 96,000 compounds, 0.07% hits; cytopathic effect, luminescence, 72 h; stronger effect = higher value; no value below 0 was filed and about half of the inactive calls have no number; reference of the scale not given here; inhibition, % at 50 µM; in the data active means inhibition above about 25%
* = called active by the depositor; i = inactive.

SMILES	H5N1 antiviral
COCC(=O)Nc1nc2ccccc2s1	1.9
COC(=O)C(NC(C)=O)(Nc1ccccc1)C(=O)OC	0.1
CCOP(=O)(OCC)C(C#N)=C1SCN(c2ccc(Cl)cc2)CS1	i
O/N=C1/C(=C\c2ccccc2)N2CCC1CC2	4.2
O=c1cc(-c2ccccc2)nc(N2CCN(Cc3ccc4c(c3)OCO4)CC2)[nH]1	0.2
O=C(CNC(=O)c1ccco1)Nc1ccc(S(=O)(=O)N2CCCC2)cc1	0.6
O=C1C(=O)N(CCO)C(c2ccccc2)/C1=C(\O)c1ccccc1 (stereo unspecified)	0.3
COC(=O)c1ccccc1NC(=O)C1CC(=O)N(C2CCCCC2)C1 (stereo unspecified)	1.3
O=C1CC(c2ccncc2)c2cc3c(cc2N1)OCCO3 (stereo unspecified)	2.0
Cc1sc2ncn(CC(=O)NCC(=O)N3CCC4(CC3)OCCO4)c(=O)c2c1C	0.3
Cc1cc(NC(=O)CN2CC(C)OC(C)C2)n(-c2nc3ccccc3s2)n1 (stereo unspecified)	1.4
Cc1nn(-c2ccccc2)c(C)c1/C=N/N1CCN(c2ccccc2)CC1	i
CCOC(=O)CC1(CC(=O)OCC)NC(=O)c2c(C)sc(C(=O)OCC)c2N1	i
O=C(Nc1ccc(NC(=O)c2cccs2)cc1)c1ccco1	i
Cc1cc(OC(=O)CCCNC(=O)OC(C)(C)C)c2c3c(c(=O)oc2c1)CCC3	0.3
c1ccc2c(c1)ccc1nnc(SCc3ccc4c(c3)OCCO4)n12	i
Cc1c(-c2ccccc2)sc(N)c1C(=O)N1CCOCC1	i
COC(=O)CN(n1cnnc1)S(=O)(=O)c1ccccc1	i
Cn1nc(-c2ccc(OCC(N)=O)cc2)c2ccccc2c1=O	1.6
CCOC(=O)N1CCC(Nc2ncnc3c2cnn3-c2ccc(C)cc2C)CC1	3.6
CCCCC(CC)Cn1c(N)c(C#N)c2nc3ccccc3nc21 (stereo unspecified)	0.1
C=CCC(NCc1ccccc1)c1ccco1 (stereo unspecified)	i
CC(NC(=O)c1ccc(-c2cc(C(F)(F)F)ccc2Cl)o1)c1ccccc1 (stereo unspecified)	i
O=P(CN1CCN(c2ccccc2)CC1)(N1CCCCC1)N1CCCCC1	i
Cn1cnc([N+](=O)[O-])c1Sc1ccccc1	1.0
(further entries)
SMILES	H5N1 antiviral
O=C(NC1CCCCC1)c1cnn2c(C(F)(F)F)cc(-c3ccco3)nc12	2.9
Cc1ccc(-n2c(=O)[nH]c3c(C(N)=O)nc(-c4ccc(C)o4)nc32)cc1	1.0
CN(C)S(=O)(=O)c1c(Cl)cccc1Cl	0.2
Cc1nnc(SCCn2c(N3CCCC(C)C3)nc3c2c(=O)[nH]c(=O)n3C)s1 (stereo unspecified)	3.6
CCOc1ccc(OCC)c(NC(=O)CN2CCN(c3cccc(C)c3C)CC2)c1	i
CCCCOP(=O)(OCCCC)C1(NS(=O)(=O)c2ccccc2)C=CC(=O)c2ccccc21 (stereo unspecified)	i
O=C(OCCN1C(=O)c2ccccc2C1=O)c1cc(S(=O)(=O)N2CCOCC2)ccc1F	4.1
CCC(OC(=O)c1cc2sccc2n1C)C(=O)NCc1ccco1 (stereo unspecified)	i
CCCCC(=O)Nc1nnn(CCC)n1	1.2
CC(C)(C)n1nnnc1CN1CCN2CCCC2C1 (stereo unspecified)	0.2
CCCCOc1ccc(CN2CCCCC2)cc1	i
CN(C)C(=O)COc1ccc2cc(-c3ccccc3)c(=O)oc2c1	0.1
COc1ccc(OCC(=O)Nc2ccc(C)cc2)cc1	i
O=C(CSc1nccn1-c1ccccc1)N1CCc2ccccc21	2.1
CC(C)CNS(=O)(=O)c1ccc(S(=O)(=O)N2CCCN(Cc3ccccc3)C2)cc1	i
CNc1nc(SCC(=O)OC)nc(N2CCOCC2)n1	i
Cn1c(SCCOc2ccccc2Cl)nnc1-c1ccncc1	1.4
COCc1cc(=O)n2[nH]c(-c3cccc(Br)c3)cc2n1	0.6
COCc1nnc(NC(=O)CCSc2ccccc2)s1	i
CCOc1ccc(NC(=O)N2CCC(n3c(=O)[nH]c4ccccc43)CC2)cc1	2.1
O=C(Nc1nnc(Cc2ccc(Cl)cc2)s1)c1ccco1	i
O=C(Nc1nccs1)c1ccc(Cl)cc1[N+](=O)[O-]	0.0
CCOc1c(S(=O)(=O)N2CCCC2)ccc(Cl)c1Cl	0.7
CSc1n[nH]c(NC2=CC(=O)CCC2)n1	1.3
Cc1cc(C(F)F)n2ncc(C(=O)N3CCc4ccccc4C3)c2n1	0.7
(more compounds)
SMILES	H5N1 antiviral
CC(=O)N1c2c(cc(Br)cc2S(=O)(=O)NCc2ccc3c(c2)OCO3)CC1C (stereo unspecified)	2.7
Cc1ccc(S(=O)(=O)CCc2ccccn2)cc1	i
FC(F)(F)c1cc(-c2ccco2)nc(NCc2ccco2)n1	i
COc1cccc(-c2nnc(SCCC(=O)O)n2C)c1	0.4
O=C(Oc1ccccc1N1C(=O)C2CCCCC2C1=O)c1ccccc1 (stereo unspecified)	i
O=C(NCCc1ccccc1)C1CCCN(S(=O)(=O)c2cccc3nonc23)C1 (stereo unspecified)	i
Cn1cnnc1SCC(=O)Nc1sc2c(c1C(N)=O)CCC2	i
N#CCC(=N)N1CCN(c2ccccc2)CC1	0.3
CCOC(=O)Oc1ccc2c(=O)c(Oc3cc(C)cc(C)c3)coc2c1	i
COc1ccc2cc(CN(CCc3ccccc3)Cc3nnnn3CC3CCCO3)c(=O)[nH]c2c1 (stereo unspecified)	1.7
COc1ccc(C)cc1-n1nnnc1SCn1nnc2ccccc2c1=O	5.2
COc1ccc(Nc2nc(N3CCCCC3)nc3ccccc23)c(OC)c1	i
S=c1nc(-c2ccccc2)n(Cc2ccco2)c2c1CCCC2	0.1
Cc1ccccc1SCC(=O)Nc1cccc(C#N)c1	0.1
Cc1cccc(C)c1NC(=O)N1C2CCCC1CC(NC(=O)C(C)(C)C)C2 (stereo unspecified)	0.1
CCCCCCC(=O)Nc1ccc(C(=O)N/N=C/c2cccnc2)cc1	i
NS(=O)(=O)c1ccc(CCNC(=O)C2CCCN2C(=O)OCc2ccccc2)cc1 (stereo unspecified)	0.0
CCn1c(N2CCN(CC(=O)c3ccc(OC)cc3)CC2)nc2ccccc21	i
CC(C)CCn1c(CN(C)Cc2ccccc2)nc2c1c(=O)n(C)c(=O)n2C	3.2
Cc1cc(N2CCC(C(=O)NC3CCCCC3)CC2)nc(-c2ccccc2)n1	i
COc1cccc(-c2nnc(SCC(=O)N3CC(C)CC(C)C3)o2)c1 (stereo unspecified)	0.9
CCCOC(=O)c1c(N)sc2c1CCC2	i
Cc1ccccc1-c1nnc(SCc2ccccc2F)o1	i
COCCn1c(SCC(=O)N2CCCc3ccccc32)nc2c(c1=O)SC(C)C2 (stereo unspecified)	2.8
CN(C)c1nc(-c2ccccc2)c2cnn(Cc3ccccc3)c2n1	0.6
(list continues)
SMILES	H5N1 antiviral
Cc1cc(=O)[nH]c(SCC(=O)Nc2cccc3ccccc23)c1C#N	0.8
COc1cc(Cl)ccc1NC(=O)COc1ccccc1C(=O)N1CCN(c2ccc(O)cc2)CC1	0.7
O=S(=O)(Cc1ccccc1)N1CCC(c2nc(-c3cccs3)no2)CC1	1.3
Fc1ccc(C2=Nn3c(Cc4ccccc4F)nnc3SC2)cc1	i
CCOC(=O)C1(C(=O)O)NC(=O)CC1c1ccccc1 (stereo unspecified)	i
O=C(Cc1cn2ccsc2n1)OCc1nc2ccccc2s1	i
COc1cccc(-c2cnc(OC(C)(C)C)nc2OC(C)(C)C)c1	i
N/C(=N\OC(=O)N1CCOCC1)c1ccccc1	i
COc1cccc(CNC(=O)c2nnn(-c3ccc(OC(F)(F)F)cc3)c2N)c1	i
COC(=O)C(C(=O)NCC1CCCO1)C1CCCCCC1 (stereo unspecified)	i
CC1CCCC(C)N1C(=O)CSCc1ccc(Cl)cc1 (stereo unspecified)	3.2
N=c1c2c(-c3ccccc3)c(-c3ccccc3)oc2ncn1CCCN1CCOCC1	i
CC(=O)Oc1ccc(N(C(C)=O)S(=O)(=O)c2cccs2)c2ccccc12	i
O=C(Nc1ccccc1SCC1CSc2nc3ccccc3c(=O)n21)c1ccccc1Cl (stereo unspecified)	6.8
Cc1cc(C)nc(NS(=O)(=O)c2ccc(NC(=O)C3CC(=O)N(c4ccccc4)C3)cc2)n1 (stereo unspecified)	i
COCCNC(=O)c1cc2oc3ccccc3c2n1C	i
CCOc1cc(-c2nc3ccccn3c2NCC2CCCO2)ccc1O (stereo unspecified)	i
COc1ccc(-n2c(SCC(=O)Nc3ccccc3)nc3c(c2=O)SCC3)cc1	i
CC(C)Oc1ccc(C(=O)N2CCCC2C(=O)O)cc1 (stereo unspecified)	0.2
CCOc1ccc(-c2[nH]ncc2-c2ccc(OC)c(OC)c2)c(O)c1	i
COc1ccc(NC2=NC(=S)N(c3ccc(C)cc3)C23CCCCC3)cc1	1.1
COc1ccc(OC(=O)Nc2ccccc2)cc1	i
C1CCC(c2nn3c(-c4n[nH]c5c4CCC5)nnc3s2)CC1	4.4
O=C(NCCCN1CCc2ccccc2C1)Nc1ccc(Br)cc1	0.3
Cc1ccc(C)c2[nH]c(=O)c(CN(CCN3CCCC3)C(=O)Nc3ccc(F)cc3)cc12	i
Following part.
SMILES	H5N1 antiviral
CN1CCN(S(=O)(=O)c2cccc(C(=O)N(c3ccccn3)C3CCCCC3)c2)CC1	i
C/C(CC(=O)NCc1ccco1)=N\NC(=O)Cc1ccccc1	0.1
Cc1noc(C)c1CSCC(=O)N1CCN(c2ccc(F)cc2)CC1	i
O=C(NC1=NCCS1)c1sc2ccccc2c1Cl	i
CC(C)CC(=O)O/N=C1\C(=O)N(Cc2ccc(Cl)cc2)c2ccc([N+](=O)[O-])cc21	i
CCn1c(COc2ccccc2C)nnc1SCC(=O)NCc1ccccc1	0.1
Cc1cc(C)n(S(=O)(=O)/C=C/c2ccccc2)n1	40*
CCC(C)Sc1nc2c([nH]c3ccccc32)c(=O)n1C (stereo unspecified)	1.7
O=[N+]([O-])c1cc(-c2n[nH]c(-c3ccccc3)n2)cc([N+](=O)[O-])c1	5.5
COC(=O)C(=Cc1ccc(OCc2ccc([N+](=O)[O-])cc2)c(OC)c1)C(=O)OC	1.1
COc1cccc(OC)c1/C(O)=C(\C#N)c1nc2ccccc2[nH]1	i
CCOC(=O)NC(=O)CSc1nc2ccc(OCC)cc2[nH]1	i
Cc1nc2ccc(N3C(=O)CCC3=O)cc2[nH]1	0.5
COC(=O)c1ccc(OCC(O)CN2C(=O)NC(C)(C)C2=O)cc1 (stereo unspecified)	1.3
Cc1ccc(C2c3sc(=O)[nH]c3SC3C(=O)NC(=O)C32)cc1 (stereo unspecified)	i
CCOC(=O)C1=NOC(CNC(=O)c2c(-c3ccccc3Cl)noc2C)C1 (stereo unspecified)	0.5
N#Cc1cc(N)c(Nc2ccccc2)cc1C#N	i
CNS(=O)(=O)c1cccc(C(=O)Nc2cccnc2)c1	1.4
Cc1ccc(C)c(C(=O)NC2CC(C)(C)NC(C)(C)C2)c1	0.8
CCOC(=O)c1c(C)n(OCc2ccccc2)c2ccc3c(no[n+]3[O-])c12	i
Cc1ccc(C(=O)/C=C/c2ccc3c(c2)OCO3)o1	0.3
CCc1c(C)nc(N)nc1N1N=C1SC	5.5
CC(C)c1nc(SCC(=O)Nc2ccc3c(c2)OCO3)n[nH]1	i
CCn1ccnc1C(O)c1ccc(N(C)C)cc1 (stereo unspecified)	0.4
Cc1cc(C)c(NC(=O)c2ccc(S(=O)(=O)N(C)C)cc2)c(C)n1	1.0
The results go on:
SMILES	H5N1 antiviral
CCOc1ccc(C(=O)N/N=C(\c2ccccc2)c2ccccn2)cc1	1.2
Cc1ccc(C(=O)CSc2nnc(CNc3nc(-c4ccccc4)cs3)n2C)cc1	i
O=C(Nc1ccc2c(c1)OCCO2)C1CCN(S(=O)(=O)c2cccs2)CC1	0.1
COc1ccc(S(=O)(=O)N2C3CCC2CC(NC(=O)C2CC2)C3)cc1 (stereo unspecified)	i
COc1ccc(-n2c(-c3cccc(OC)c3)nc(=S)c3c2CCCC3)cc1	0.4
COc1cccc(N2CCN(c3ncnc4c3[nH]c3ccc(F)cc34)CC2C)c1 (stereo unspecified)	i
Fc1nc(N2CCCC2)c(F)c(Oc2ccccc2Oc2c(F)c(F)nc(N3CCCC3)c2F)c1F	i
CN1CCN(CCNC(=O)c2cc3c(=O)n(C)c4ccccc4c3n2C)CC1	1.4
Cn1c(SCC(=O)c2ccc(F)cc2)nnc1-c1cnccn1	1.1
Cc1cccc(C)c1NC(=O)Cn1cnc2c(=O)n(C)c(=O)n(C)c21	i
COc1ccc(-c2noc(CCCC(=O)Nc3ccc(C(N)=O)cc3)n2)cc1	i

Arranged by molecular weight (largest number first): 20 of the compounds above
SMILES	H5N1 antiviral
Fc1nc(N2CCCC2)c(F)c(Oc2ccccc2Oc2c(F)c(F)nc(N3CCCC3)c2F)c1F	i
Cc1ccc(C(=O)CSc2nnc(CNc3nc(-c4ccccc4)cs3)n2C)cc1	i
O=C(Nc1ccc2c(c1)OCCO2)C1CCN(S(=O)(=O)c2cccs2)CC1	0.1
CCOC(=O)C1=NOC(CNC(=O)c2c(-c3ccccc3Cl)noc2C)C1 (stereo unspecified)	0.5
COc1cccc(N2CCN(c3ncnc4c3[nH]c3ccc(F)cc34)CC2C)c1 (stereo unspecified)	i
CN1CCN(CCNC(=O)c2cc3c(=O)n(C)c4ccccc4c3n2C)CC1	1.4
COc1ccc(-c2noc(CCCC(=O)Nc3ccc(C(N)=O)cc3)n2)cc1	i
COc1ccc(-n2c(-c3cccc(OC)c3)nc(=S)c3c2CCCC3)cc1	0.4
CCOC(=O)c1c(C)n(OCc2ccccc2)c2ccc3c(no[n+]3[O-])c12	i
COc1ccc(S(=O)(=O)N2C3CCC2CC(NC(=O)C2CC2)C3)cc1 (stereo unspecified)	i
Cc1cc(C)c(NC(=O)c2ccc(S(=O)(=O)N(C)C)cc2)c(C)n1	1.0
Cc1cccc(C)c1NC(=O)Cn1cnc2c(=O)n(C)c(=O)n(C)c21	i
Cc1ccc(C2c3sc(=O)[nH]c3SC3C(=O)NC(=O)C32)cc1 (stereo unspecified)	i
Cn1c(SCC(=O)c2ccc(F)cc2)nnc1-c1cnccn1	1.1
CC(C)c1nc(SCC(=O)Nc2ccc3c(c2)OCO3)n[nH]1	i
CNS(=O)(=O)c1cccc(C(=O)Nc2cccnc2)c1	1.4
Cc1ccc(C(=O)/C=C/c2ccc3c(c2)OCO3)o1	0.3
CCn1ccnc1C(O)c1ccc(N(C)C)cc1 (stereo unspecified)	0.4
N#Cc1cc(N)c(Nc2ccccc2)cc1C#N	i
CCc1c(C)nc(N)nc1N1N=C1SC	5.5

Bioassay records from PubChem BioAssay.

Not all compounds are listed, so the mix of outcomes need not match the whole.
